eIF4H inh = human eIF4H binding inhibitors, primary screen, translation initiation inhibitor project, biochemical, uHTS, fluorescence polarization | Eukaryotic translation initiation factor 4H (Homo sapiens), Q15056 | eIF4H fluorescence polarization binding assay | inhibition, % at 35 µM | 0.94% of 290,000 active;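 active means 50% or more with normal probe brightness, or confirmed in later tests; inconclusive means above 50% with abnormal brightness, or retests that disagree; inactive means below 50% or failed in later tests; about a fifth of its hits are not listed in these tables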;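 further: calls also rest on retests at 20 µM and on dose response follow-up; 0% = protein and probe with vehicle and 100% = probe without protein; strong numbers were not always called active; many hits fall short of the cut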
Rce1 inh = yeast Rce1p protease inhibitors, primary screen, biochemical, fluorescence, cell-free homogeneous; yeast membranes, quenched prenylated peptide cleavage fluorescence; calls only; AID 2563, 2010; 0.27% of 290,000 active;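 active means fall in fluorescence gain of 50% or more versus controls, with final raw signal at or below 3038400; inconclusive means same 50% fall but final raw signal above 3038400; inactive means fall in fluorescence gain under 50%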;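 further: plate controls were neutral control wells for no effect and wells lacking membranes for full effect; tested at 10 µM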
CSC inhib = cancer stem cell viability inhibitors, primary screen, luminescence; cancer stem cell-like cells viability; inhibition, % at 7.5 µM; 1.1% of 300,000 active; AID 2717, 2010;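 active means mean at 75% or more and at least half the replicates too; inconclusive means mean and replicates disagree; tested in HMLE shEcad cells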;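 further: 0% = median of negative and 100% = median of positive control wells; the first replicate is given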
UUG fidelity = modulators of yeast start codon fidelity, primary screen, whole organism, S. cerevisiae, single point, plate reader. S. cerevisiae UUG-firefly luciferase reporter, luminescence/redox ratio. activity score, % at 18.7 µM. 0.13% of 350,000 active;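 active means replicate mean at a twofold rise or more, about +100% in these data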;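 further: firefly luciferase made from a UUG start codon reports start codon fidelity; reporter light over untreated wells divided by growth signal over untreated wells; some hits fall short of that in this replicate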
PABP FP inh = PABP poly(A) RNA binding inhibitors, primary screen, biochemical, fluorescence polarization, uHTS. 1% of 290,000 active. inhibition, % at 35 µM. Polyadenylate-binding protein 1 (Homo sapiens), P11940;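 active means 50% or more with normal probe brightness, or confirmed in later tests; inconclusive means above 50% with abnormal brightness, or retests that disagree; inactive means below 50% or failed in later tests; about a fifth of its hits are not listed in these tables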;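 further: calls also rest on retests at 20 µM and on dose response follow-up; controls were probe without protein and protein plus probe with vehicle; some compounds called inactive have numbers as strong as hits; many hits fall short of the cut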
Target sequence (P11940 whole entry, looked up): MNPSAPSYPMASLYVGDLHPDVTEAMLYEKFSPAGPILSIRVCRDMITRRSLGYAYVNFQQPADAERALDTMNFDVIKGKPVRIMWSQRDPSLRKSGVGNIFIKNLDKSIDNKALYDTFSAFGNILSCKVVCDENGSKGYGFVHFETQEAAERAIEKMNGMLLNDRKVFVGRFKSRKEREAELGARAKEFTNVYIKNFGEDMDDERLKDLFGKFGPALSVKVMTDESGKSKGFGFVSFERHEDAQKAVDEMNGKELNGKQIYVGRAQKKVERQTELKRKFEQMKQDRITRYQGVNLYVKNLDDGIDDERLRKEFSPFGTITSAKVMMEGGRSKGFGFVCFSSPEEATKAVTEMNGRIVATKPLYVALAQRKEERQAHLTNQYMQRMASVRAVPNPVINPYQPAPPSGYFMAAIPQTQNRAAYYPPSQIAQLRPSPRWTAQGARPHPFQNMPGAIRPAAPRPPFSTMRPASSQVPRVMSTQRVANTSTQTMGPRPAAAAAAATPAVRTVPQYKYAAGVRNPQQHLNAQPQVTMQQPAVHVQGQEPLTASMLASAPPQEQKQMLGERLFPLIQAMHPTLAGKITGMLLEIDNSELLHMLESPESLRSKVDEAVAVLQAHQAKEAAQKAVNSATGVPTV
MT1-MMP act inh = blockers of MT1-MMP proenzyme processing, primary screen, HT1080 RFP-PRO-GFP cells, GFP/RFP fluorescence; Matrix metalloproteinase-14 (Homo sapiens), P50281; GFP/RFP ratio fluorescence, overnight; percent of plate control window, DMSO zero; GFP/RFP ratio change, % at 20 µM; 0.061% of 360,000 active;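 active means GFP/RFP ratio change of at least 30% with cell ATP level not reduced by more than half and red fluorescence within 50% of control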; further: strong numbers were not always called active
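Test system: HT1080 RFP-PRO-GFP cells; Benchmarks: DMSO and RFP-L50D-GFP cell wells; Timing: cells overnight before dosing, compound overnight, 37 °C, 5% CO2; Compound: one 20 µM compound dose with 1% DMSO; Read-out: GFP/RFP fluorescence ratio.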
Env fusion inh = inhibitors of HIV-1 Env-driven cell-cell fusion, primary screen, HeLa-JRFL effector, CEM21 target cells, luciferase. 1.1% of 360,000 active. inhibition, % at 12.3 µM;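 active means mean replicate inhibition score of at least 50 and every replicate individually at or above 50; inconclusive means only one of the two criteria met; inactive means mean below 50 and not all replicates reaching 50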;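 further: 0% = plate neutral controls and 100% = maraviroc near 300 nM; one replicate is shown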
eIF4H inh retest = second read-out of eIF4H inh, no call of its own (marks repeat the call); inhibition, %; compound at 20 µM; confirmation average;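 mean of two retest wells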
PABP FP inh retest = also measured in PABP FP inh; calls as there; inhibition, %; compound at 20 µM; confirmation repeats;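 mean of two retest wells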
MT1-MMP act inh RFP = also measured in MT1-MMP act inh; calls as there; RFP signal change, %; measured here: RFP expression control read;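 0 = vehicle wells; hits needed this value within 50% of zero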
* = called active by the depositor; i = inactive; ? = inconclusive; · = no result given; + = active, no number; & = joins results of further samples.

Start of the listing, in advance, 6 compounds:
SMILES	eIF4H inh	Rce1 inh	CSC inhib	UUG fidelity	PABP FP inh	MT1-MMP act inh	MT1-MMP act inh RFP	Env fusion inh	others
C[C@H](O)[C@@H]1C(=O)N2CCc3c([nH]c4ccccc34)[C@@H]2C[C@@H]1N(C)Cc1ccc2c(c1)OCO2	·	·	·	23	·	-22	-13	-346
O=C(NC1CCCCC1)c1cccc(OCc2ccccc2)c1	-2	i	-2	-7	-16	4	-7	10
COCCNC(=S)N1CCN(c2nc3ccccc3s2)CC1	0	i	-13	·	-2	1	0	11
COc1ccc(-c2cc(C(F)(F)F)n3nc(C(=O)Nc4cc(C)on4)cc3n2)cc1OC	4	i	-11	-15	-12	-15	-3	·
CCOC(=O)C1=C(COC(=O)C2CC(=O)N(c3ccccc3CC)C2)NC(=O)NC1C (stereo not drawn)	·	·	·	5	·	-5	2	-8
CN(C(=O)c1ccncc1)c1nnc(-c2cccnc2)s1	-11	i	2	-19	-10	8	7	-15

Results, repeating the preview:
SMILES	eIF4H inh	Rce1 inh	CSC inhib	UUG fidelity	PABP FP inh	MT1-MMP act inh	MT1-MMP act inh RFP	Env fusion inh	others
C[C@H](O)[C@@H]1C(=O)N2CCc3c([nH]c4ccccc34)[C@@H]2C[C@@H]1N(C)Cc1ccc2c(c1)OCO2	·	·	·	23	·	-22	-13	-346
O=C(NC1CCCCC1)c1cccc(OCc2ccccc2)c1	-2	i	-2	-7	-16	4	-7	10
COCCNC(=S)N1CCN(c2nc3ccccc3s2)CC1	0	i	-13	·	-2	1	0	11
COc1ccc(-c2cc(C(F)(F)F)n3nc(C(=O)Nc4cc(C)on4)cc3n2)cc1OC	4	i	-11	-15	-12	-15	-3	·
CCOC(=O)C1=C(COC(=O)C2CC(=O)N(c3ccccc3CC)C2)NC(=O)NC1C (stereo not drawn)	·	·	·	5	·	-5	2	-8
CN(C(=O)c1ccncc1)c1nnc(-c2cccnc2)s1	-11	i	2	-19	-10	8	7	-15
Nc1nonc1-n1nnc(C(=O)O)c1-c1cccs1	-6	·	6	-10	-4	-1	4	-26
C/C(=N/NC(=O)c1ccncc1)c1ccc(NC(=O)c2ccc(Cl)cc2Cl)cc1	-11	i	-2	-31	-6	3	2	-25
CC(=O)Nc1ccc(OCC(O)CN2CCN(c3ccc(F)cc3)CC2)cc1 (stereo not drawn)	-8	i	0	15	1	5	3	-9
O=C(Nc1nccs1)C(c1ccccc1)N1CCCC1 (stereo not drawn)	2	i	-2	·	-8	6	3	-9
COc1cc(CCC(=O)OCC(=O)Nc2ccc(F)c(F)c2)cc(OC)c1OC	7	i	-25	-3	-7	0	0	15
Oc1ccc(Cl)cc1CNCc1ccc(C(F)(F)F)cc1	·	·	28	-6	·	6	5	-19
CC(C)CCN(CCC(C)C)C/C(O)=C(\C#N)c1nc(-c2ccccc2)cs1	-3	i	·	-8	8	-5	-6	·
O=C(COC(=O)/C=C/c1cccc(C(F)(F)F)c1)NCc1ccc(F)cc1	2	i	-5	·	-13	2	4	-6
CC1CC(C)CN(C(=O)COC(=O)Cc2c[nH]c3ccccc23)C1 (stereo not drawn)	·	i	·	-1	·	0	3	·
Cc1ccn2cc(-c3ccc(Br)cc3)nc2c1	-3	i	15	-67	0	-4	-10	-75
Cc1cc(C)cc(OCC(=O)OCC(=O)c2ccc3c(c2)NC(=O)CO3)c1	0	i	·	-18	-13	4	7	-14
COc1ccc(N(C(=O)CNC(=O)c2ccco2)C(C(=O)NC2CCCCC2)c2cccnc2)cc1 (stereo not drawn)	-3	i	·	5	0	-2	-2	1
CCCNC(=O)C(Cc1cccc(OC)c1)NC(=O)c1ccc(C(C)(C)C)cc1 (stereo not drawn)	·	·	12	-8	·	2	0	10
Cc1nc2ccccn2c1P(=Nc1ccccc1)(N(C)C)N(C)C	2	i	-2	-5	-14	-1	-1	·
O=C(COC(=O)CNS(=O)(=O)c1ccccc1)NC12CC3CC(CC(C3)C1)C2	0	i	-2	·	-12	1	3	17
CCN(C(=O)CN1CCCc2cc(C)ccc21)c1c(N)n(Cc2ccccc2)c(=O)[nH]c1=O	·	·	·	-21	·	-101	4	-2
Cc1cc(O)c(C(=O)/C=C/c2c(F)c(F)c(F)c(F)c2F)c(=O)o1	11	i	-1	-18	-2	-45	8	-22
COc1ccc(CN2C(=O)C(Cc3ccccc3)Nc3ncnc(N4CCOCC4)c32)cc1 (stereo not drawn)	·	i	13	-39&3	·	0&6	1&7	-2
CCN(CC)C(=O)COc1ccc(Br)cc1Cl	5	i	-4	-17	4	-1	-1	-156
COc1cccc(/C=C2\SC(=S)N(CC(=O)N(C)C3CCS(=O)(=O)C3)C2=O)c1 (stereo not drawn)	-8	i	4	-1	-18	0	-3	-6
CC[C@@]1(c2cccc(C)c2)C(=O)N(C(=O)OC)N1C(=O)OC	-13	i	11	-18	0	0	2	24
Cc1ccccc1NC(=O)CSc1nc(=O)n(CCN2CCOCC2)c2c1CCCC2	·	i	0	-1	·	0	-1	-3
CCOc1cc(/C=C2\C(=N)N3N=C(N4CCCCC4)SC3=NC2=O)ccc1OC(=O)c1ccco1	15	i	-2	-22	3	-6	4	-19
Cc1cc(NC(=O)c2cc(C)on2)no1	0	i	-1	·	10	1	1	-46
CC(=O)c1ccc(N=Nc2c(C)[nH][nH]c2=O)cc1	·	i	-4	-13	·	2	4	-36
O=C1Nc2ccc(F)cc2C12Nc1ccccc1-c1nnc(SCc3ccccc3F)nc1O2 (stereo not drawn)	9	i	-6	-5	0	-12	-5	·
O=C(O)c1ccc(CN(c2ccccn2)S(=O)(=O)c2ccccc2)cc1	-6	+	·	-8	1	2	6	·
COc1ccccc1CN1C[C@@H]2C[C@@H](c3ccc(Cl)cc3)N3CCC[C@@]23C1=O	1	i	0	2	2	-11	-5	13
CC1=CC(C)(C)N(C(=O)CNC2CCCC2)c2cc(C)ccc21	22	i	5	·	20	1	2	7
OC[C@@H]1CN(Cc2ccc(F)cc2)C[C@H](n2cnc3c(NCc4ccco4)ncnc32)O1	·	·	·	1	·	2	2	-5
COc1ccc(CCNC(=O)c2cccn2C)cc1	-14	i	1	-15	-4	-5	-1	-54
CCCNC(=O)CNC(=O)c1ccc(C#N)cc1	·	·	·	-11	·	-2	1	-15
Cc1ccc(OCC(=O)NC(=S)Nc2cccc(C)n2)cc1	-2	i	-10	·	-1	2	6	-66
COC(=O)C1C(=O)CC(C)(O)C(C(=O)OC)C1c1ccc2c(c1)OCO2 (stereo not drawn)	2	·	8	10	3	19	7	·
C=CCn1c(COc2cccc(C)c2)nnc1SCC(=O)c1c[nH]c2c(CC)cccc12	-6	i	-6	-5	26	4	2	-3
Cc1cccc(/C(N)=N/OC(=O)c2ccc(F)cc2)c1	-2	i	13	·	-4	4	8	-132
Cc1cc(C(F)(F)F)nc(SCC(=O)Nc2ccccc2)n1	0	i	-13	-17	0	1	2	13
Cc1ccnc(NCc2ccc(Br)cc2)c1	-9	i	8	-13	10	2	4	-22
CCCOc1ccc(C2c3c(oc4cc(C)c(C)cc4c3=O)C(=O)N2CCCN2CCOCC2)cc1 (stereo not drawn)	1	i	-1	1	-6	-4	1	-15
CCOC(=O)c1nn(-c2ccccc2)c2nc(-c3ccc(OC)cc3)c(C#N)c(=O)n12	-3	i	1	-11	67	3	2	·	eIF4H inh retest=13;PABP FP inh retest=42
O=C(CN1CCN(S(=O)(=O)c2cc(Cl)ccc2Cl)CC1)Nc1ccc2c(c1)OCCO2	0	i	20	·	-10	6	-1	·
Cc1cccc(-n2ccc(=O)c(C(=O)Nc3ccc(S(=O)(=O)Nc4nccs4)cc3)n2)c1	41	i	3	·	16	3	1	-4
Cc1nn(CC(C)C)c(Cl)c1C(=O)N(C)CC(=O)Nc1c(Cl)cccc1Cl	-2	i	-8	-14	5	-3	-1	·
COc1ccc(C(C(=O)NCC2CCCO2)N(C(=O)Cn2nnc3ccccc32)c2ccc(NC(C)=O)cc2)cc1 (stereo not drawn)	-4	i	·	2	8	0	4	-7
NS(=O)(=O)c1ccc(CCNC(=O)CSc2nc3ccccc3c(=O)n2CCN2CCOCC2)cc1	1	i	11	12	-14	-1	3	5
CCOc1ccc(C(=O)Nc2cc(-c3nc4ccccc4[nH]3)ccc2C)cc1[N+](=O)[O-]	4	i	20	0	17	-3	-3	·
CC(C)C(=O)NC(=S)NCC(=O)c1ccccc1	-6	i	-5	-14	-12	4	6	·
CC(=O)NC(Cc1ccccc1F)C(=O)NC1CCN(c2ncccc2[N+](=O)[O-])CC1 (stereo not drawn)	-13	i	-2	·	0	3	-2	-11
COCCN(CC(=O)Nc1cccc(C)c1C)C(=O)C1(c2ccc(Cl)cc2)CCC1	·	·	12	-23	·	5	-1	·
CC(C)(C)n1nc2c(c1NC(=O)COc1ccccc1F)CS(=O)(=O)C2	-9	i	-4	·	21	-1	1	14
O=C(COC(=O)/C=C/c1ccc(C(F)(F)F)cc1)Nc1ccc2[nH]c(=O)[nH]c2c1	·	·	·	-20	·	8	4	-14
Cc1ccc(N2C(N)=C(C#N)C(c3cccnc3)C3=C2CCCC3=O)cc1 (stereo not drawn)	11	i	-11	·	13	4	0	·
CCC1CCc2sc(C(=O)NNC(=O)c3ccncc3)cc2C1 (stereo not drawn)	·	i	-2	·	·	-2	-4	-37
CCCSc1ccc([C@@H]2[C@H]3C(=O)N(CC)C(=O)[C@H]3[C@]3(C(=O)OC)CCCCN23)cc1OC	·	i	0	-3	·	-5	-1	?

The list continues.
SMILES	eIF4H inh	Rce1 inh	CSC inhib	UUG fidelity	PABP FP inh	MT1-MMP act inh	MT1-MMP act inh RFP	Env fusion inh	others
O=C1NCN(CCO)CN1	-7	i	11	-14	15	1	4	-8
CCc1cc(-c2[nH]ncc2-c2nc3ccccc3n2C)c(O)cc1O	21	i	5	-18	5	-1	-3	-3
Cc1cc(C)nc(NCC(O)CNc2ccccc2Cl)n1 (stereo not drawn)	10	·	1	1	5	4	-5	-19
COCc1nnc(NS(=O)(=O)c2ccc(Br)cc2)s1	-2	i	0	-15	1	3	7	-42
Cc1ccc(NCc2ccccc2F)cc1	3	i	3	·	-7	-4	-1	8
COc1ccc(C)c2sc(N(CCN(C)C)C(=O)/C=C/c3cccs3)nc12	-18	i	-34	-18	-17	0	-2	-25
CSc1ccc(S(=O)(=O)NCc2ccccc2)cc1	-8	i	3	4	-8	1	3	20
OC(COc1ccc(F)cc1Cl)CN1CCC(Cc2ccccc2)CC1 (stereo not drawn)	-3	i	23	-7	-6	-1	-3	10
FC(F)(F)c1cc(Oc2ccccc2Cl)nc(-c2ccccn2)n1	-1	i	30	-28	-5	-5	-2	25
CCCn1c(O)c(CN2CCCCC2)c(C)c(C#N)c1=O	?	i	-14	·	?	-11	5	·
CCC(CO)Nc1ccc(-c2n[nH]c(=O)c3ccccc23)cc1[N+](=O)[O-] (stereo not drawn)	2	i	1	-1	-10	6	-1	2
CC1COc2ccccc2N1S(=O)(=O)c1cc(Cl)ccc1Cl (stereo not drawn)	-3	i	5	-17	-9	-3	-4	13

Bioassay records (PubChem BioAssay)
